Screens (PubChem)
HNF4A DNA FP: change in binding of human HNF4 alpha to DNA. HNF4a-FITC DNA binding, fluorescence polarization, 1 h. activity change, % at 10 µM. 360,000 compounds, 0.3% hits. AID 1224865; in the data active means activity change above about 30%, passing the limit was not always enough;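 further: controls were the assay level and a saturating level of protein; the project sought stronger binding though the title names inhibitors; some compounds called inactive have numbers as strong as hits; positive values seem to mean higher polarization but the record does not say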
Target sequence (P41235 whole entry, looked up): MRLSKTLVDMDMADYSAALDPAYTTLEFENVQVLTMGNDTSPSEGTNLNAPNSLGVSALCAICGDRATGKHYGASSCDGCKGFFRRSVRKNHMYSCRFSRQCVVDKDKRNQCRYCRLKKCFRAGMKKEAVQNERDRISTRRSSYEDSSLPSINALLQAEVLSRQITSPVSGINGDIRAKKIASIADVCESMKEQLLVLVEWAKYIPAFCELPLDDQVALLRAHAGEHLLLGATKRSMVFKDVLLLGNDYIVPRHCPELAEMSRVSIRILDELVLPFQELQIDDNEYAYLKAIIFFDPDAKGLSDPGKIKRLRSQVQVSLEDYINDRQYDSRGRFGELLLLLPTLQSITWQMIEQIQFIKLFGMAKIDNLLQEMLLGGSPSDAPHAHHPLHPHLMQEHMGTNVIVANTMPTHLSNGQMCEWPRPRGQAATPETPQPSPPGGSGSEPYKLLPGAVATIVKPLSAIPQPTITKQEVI
Vif TR-FRET: HIV-1 Vif–A3G interaction blockers – biochemical, TR-FRET, GST-Vif 1-94, biotin-A3G peptide, dose response retest, primary screen (AID 1117319); 260,000 compounds, 0.57% hits; one-dose inhibition, %; IC50 in µM for titrated hits; TR-FRET GST-Vif / biotin-A3G peptide binding; higher % means a stronger effect; test concentration not given here; strong numbers were not always called active;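 active means above the screen mean plus three standard deviations and confirmed in dose response; inconclusive means results disagree or hit not tested in dose response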;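 further: Vif residues 1-94 fused to GST binding biotinylated APOBEC3G peptide 110-148; 0% = full assay without inhibitor and 100% = GST in place of GST-Vif; retest series ran down from 100 µM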
E coli growth: inhibitors of Escherichia coli growth; 330,000 compounds, 0.21% hits; OD600, 23 h; stronger effect = lower value; OD600 absorbance (test concentration not listed); AID 1053175;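 active means OD600 absorbance below the run mean of sample wells minus 3.6 SD, in any replicate, cut at about 0.56 in these data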;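 further: stock transfer was 300 nL into about 60 µL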
A1 inh: inhibitors of the anti-apoptotic protein A1, read as caspase activation | AID 2462 | 330,000 compounds, 0.066% hits | caspase activation, % (test concentration not listed) | MEF A1-2A-BIM cells, Caspase-Glo 3/7 luminescence, 3 h; percent of clofoctol response, vehicle zero;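 active means over half of replicate activation scores above 10%, or exactly half above 10 with the replicate mean above 10; inconclusive means replicate mean below 10 yet half the replicates above 10; inactive means over half of replicates below 10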;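 further: wells of about 30 µL received 50 nL stock; many hits fall short of the cut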
UCH37 inh: inhibitors of human deubiquitinating enzyme UCH37. inhibition, % (concentration not given with the values). Q9Y5K5. purified proteasome/UCH37, Ub-AMC cleavage fluorescence. 330,000 compounds, 0.33% hits;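 active means mean of two replicates above 20%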;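 further: 0% = compound-free wells with enzyme and 100% = wells lacking proteasome; stock transfer was 100 nL into about 20 µL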
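Material: human UCH37 enzyme supplied as purified proteasome complex / Amount: 0.15 nM proteasome as dispensed / Buffer or medium: pH 7.4 Tris-HCl (50 mM) with ovalbumin, ATP-MgCl2, DTT / Times: preincubation 30 min, reaction 25 min, room temperature / Technique: AMC fluorescence from Ub-AMC cleavage, excitation 355 nm, emission 460 nm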
LANA-H2A inh: blocks KSHV LANA binding to histone H2A/H2B; Q9QR71; cell-free LANA-H2A/H2B peptide, fluorescence polarization; inhibition, % (no concentration beside the values); 320,000 compounds, 0.6% hits; AID 2629; in the data active means inhibition mostly above about 10%, no sharp cut-off; inactive means mostly below about 6.7%;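 further: stock transfer was 7.5 nL into about 10 µL; 0% = median of vehicle wells and 100% = median of positive control wells; one replicate is shown; the record names a cut of 25% in any replicate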
B2AR ag: agonists of human beta-2 adrenergic receptor inducing internalization; P07550; Am2.2-beta2AR cells, FAP receptor internalization, flow cytometry; reference of the scale not given here; response, % (concentration not given with the values); 340,000 compounds, 0.43% hits;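 active means response above a set limit, near 3 SD of response in nonfluorescent compounds, cut at about 42% in these data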;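 further: stock transfer was 100 nL into about 11 µL; a reference agonist was the positive control; negative values mostly stem from fluorescent compounds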
Target sequence (P07550 whole entry, looked up): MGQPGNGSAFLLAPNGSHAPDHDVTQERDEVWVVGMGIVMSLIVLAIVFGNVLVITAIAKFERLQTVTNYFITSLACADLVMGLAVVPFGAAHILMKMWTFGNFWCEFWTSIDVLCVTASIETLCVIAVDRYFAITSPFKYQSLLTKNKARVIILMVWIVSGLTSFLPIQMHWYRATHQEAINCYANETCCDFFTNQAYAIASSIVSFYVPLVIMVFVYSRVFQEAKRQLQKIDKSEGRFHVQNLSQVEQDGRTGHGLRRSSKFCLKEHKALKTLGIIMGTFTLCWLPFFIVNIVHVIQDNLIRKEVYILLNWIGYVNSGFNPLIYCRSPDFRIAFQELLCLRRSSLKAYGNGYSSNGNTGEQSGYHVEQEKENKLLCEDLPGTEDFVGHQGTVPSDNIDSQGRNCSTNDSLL
Numbers without * were called inactive; ? = inconclusive; . = not tested or not shown; & = joins results of further samples.

#	canonical_smiles	HNF4A DNA FP	Vif TR-FRET	E coli growth	A1 inh	UCH37 inh	LANA-H2A inh	B2AR ag
1	O=C(NC1CCCC1)C(c1ccccc1)N(C(=O)c1csnn1)C1CCCC1 (stereo not drawn)	1.2	.	0.676	0.1	0.0	-1.9	10.8
2	Cc1noc(/C=C/N(C)C)c1S(=O)(=O)N1CCCC(C(=O)NC2CCCCC2)C1 (stereo not drawn)	-2.2	1.5%	0.717	0.0	13.4	1.0	-8.2
3	C/C(=N\NC(=O)c1cc2ccccc2cc1O)c1ccccn1	-1.6	.	.	1.9	.	-3.7	-1.2
4	O=C(O)CCCCCNc1nc(-c2ccccc2)nc2ccccc12	1.0	1.0%	0.666	0.8	3.7	-10.2	-10.8
5	COc1ccc(CN(C)C(=O)CNC(=O)Cc2cccc3ccccc23)c(OC)c1OC	3.4	.	0.683	0.2	3.9	-0.6	4.7
6	CCc1ccccc1N(CC(=O)NC(C)c1ccccc1)S(C)(=O)=O (stereo not drawn)	4.0	.	0.704	0.0	6.2	3.7	-2.2
7	Cc1ccc(NC(=O)NCCN2CCCCC2)cc1C	0.2	-1.4%	0.673	0.1	5.1	4.0	2.6
8	C=CCc1cccc2cc(C(=O)Nc3cccc(C(=O)O)c3)c(=O)oc12	.	2.2%	0.68	-9.9	3.1	6.8	.
9	COc1cccc(C2=NN(C(=O)c3cccs3)C(O)(C(F)(F)F)C2)c1 (stereo not drawn)	-0.3	-0.5%	0.69	-0.4	5.1	-0.9	6.6
10	Nc1ccc2oc(CCc3ccccc3)nc2c1	2.8	10.0%	0.69	-5.3	-3.2	-1.0	9.0
11	CCc1c(O)cc2n(c1=O)-c1ccc(Cl)cc1C2(C)C	2.1	2.6%	0.669	-0.7	0.6	-4.2	10.6
12	Cc1nc2sccn2c(=O)c1S(=O)(=O)N1CCN(c2ccccc2)CC1	-4.3	.	0.784	0.0	4.8	-1.6	8.6
13	O=C(COC(=O)/C=C/c1cccc(C(F)(F)F)c1)Nc1ccc(Cl)cn1	-2.1	-6.5%	0.703	-0.8	4.5	-0.4	-9.2
14	CC(=O)O[C@]1(C(C)=O)CCC2C3C=C(C)C4=CC(=O)CC[C@]4(C)C3CC[C@@]21C (stereo partly drawn)	4.7	-1.8%	0.676&0.619	0.4	5.8	0.0	8.2
15	COc1ccccc1OCCNC(=O)CSC(=S)N1CCCC1	0.9	2.4%	0.682	-0.4	4.2	-2.7	-0.8
16	CCOc1cccc2sc(N(CCN(C)C)C(=O)CCS(=O)(=O)c3ccccc3)nc12	4.6	-1.4%	0.741	0.0	3.4	-7.5	-4.2
17	CN(C)S(=O)(=O)c1ccc(C(=O)Nc2ccccc2[N+](=O)[O-])cc1	3.8	6.2%	0.676	-0.4	1.6	4.4	1.4
18	COc1ccc(C(CNc2nc(-c3cccnc3)nc3ccccc23)N(C)C)cc1 (stereo not drawn)	0.8	.	0.658	0.2	0.3	-8.7	9.1
19	O=[N+]([O-])c1ccc(S(=O)(=O)N2CCN(c3ccc(N4CCOCC4)nn3)CC2)cc1	1.3	5.1%	0.599	1.4	1.7	-5.2	4.2
20	Cc1cccc(CCNC(=O)C2CCN(S(=O)(=O)N3CCOCC3)CC2)c1	3.4	.	0.714	0.5	1.2	2.5	12.2
21	Cc1nc(OCc2c(C)noc2C)c2ccccc2n1	-0.1	-11.8%	0.695	-0.4	-0.2	-1.8	-14.3
22	COc1ccc(-c2nc(CSCC(=O)NCc3ccc4c(c3)OCO4)c(C)o2)cc1	0.4	0.0%	0.719	-1.2	1.8	0.2	7.6
23	Cc1ccc(S(=O)(=O)NN=C2C3CC4CC(C3)CC2C4)cc1[N+](=O)[O-]	2.0	25.9%	0.673	0.0	2.5	3.0	-2.8
24	O=C(Nc1ccc(Oc2cccnc2)cc1)c1cccc([N+](=O)[O-])c1	1.4	.	0.643	-0.6	1.0	-3.1	-4.8
25	CC(=O)c1ccccc1NC(=O)C1CCCN(C(=O)c2ccc(Cl)cc2)C1 (stereo not drawn)	-5.4	.	0.697	1.0	2.2	-5.5	-11.3
26	Cn1nnnc1SCc1ccc(CSc2nnnn2C)cc1	1.2	-3.2%	0.69	0.7	1.5	-1.7	-7.2
27	COc1cc(OC)cc(C(=O)N2CCC(C(=O)Nc3ccc4c(c3)OCCO4)CC2)c1	-3.0	6.7%	.	-0.1	0.0	-15.4	-8.9
28	COc1ccc(CNCCC(c2ccc(F)cc2)c2ccc(OC)cc2)cc1 (stereo not drawn)	1.9	-0.9%	0.608	0.4	-0.1	-6.1	34.6
29	COC(=O)c1ccc(OC)c(NS(=O)(=O)c2ccc(-n3cnnn3)cc2)c1	0.6	11.2%	0.678	-0.1	1.7	6.7	-2.9
30	Cc1cc(C)c2ccc3c(C)c(C)n(C)c3c2n1	-1.8	7.5%	0.733	0.2	-167.3	1.5	1.6
31	COC(=O)c1cc(CNC(=O)C2CC(=O)N(c3ccc4c(c3)OCCO4)C2)ccc1OC (stereo not drawn)	-2.8	.	0.683	-0.1	0.8	1.2	-3.5
32	O=C(CSc1ncnc2c1cnn2CCc1ccccc1)Nc1cccc(C(F)(F)F)c1	-0.8	14.5%	0.682	-1.0	7.0	2.9	-4.4
33	Cc1ccc(S(=O)(=O)NCCC(=O)N2CCN(S(=O)(=O)c3ccccc3)CC2)cc1C	-0.8	-9.3%	0.638	-0.8	-0.1	2.5	3.6
34	CCCCN(CC)CCNC(=O)Cn1cc2c(n1)-c1c(oc(C(=O)N3CCCC3)c1C)CC2	-2.3	-6.2%	0.726	0.5	-3.0	3.8	-14.0
35	CCOc1ccc(NC(=O)C2CCCN(S(=O)(=O)c3ccc4[nH]c(=O)ccc4c3)C2)cc1 (stereo not drawn)	4.5	1.2%	0.688	-0.2	-5.6	4.0	-0.2
36	CC(=O)/C(=N\Nc1ccc(C)cc1)Sc1nncn1C	-5.1	4.1%	.	0.0	.	8.2	-8.8
37	COc1ccc(S(=O)(=O)N2CCC(C(=O)NC3CC(C)(C)NC(C)(C)C3)CC2)cc1	5.4	.	0.696	1.1	0.9	3.5	-1.3
38	CC1CC(NC(=O)Cc2ccc(Br)cc2)CC(C)(C)C1 (stereo not drawn)	0.9	10.0%	0.681	0.6	1.4	0.1	-4.7
39	O=C(COc1ccc(-c2ccccc2)cc1)Nc1cccnc1	-1.1	-5.4%	0.638	-0.9	1.7	2.1	-5.9
40	COc1ccc(C(=O)OCC(=O)c2ccc[nH]2)c(OC)c1	2.9	-1.6%	0.664	-1.7	-0.3	-1.9	-0.4
41	Cc1ccc(C(=O)NC(=S)Nc2ccc(Oc3ccc(Cl)cc3)cc2)cc1	-1.7	-2.4%	0.736	-0.2	2.5	1.4	-0.6
42	CS(=O)(=O)N1CCn2c1nc1ccccc12	3.3	.	0.66	-0.5	0.7	-0.5	-6.4
43	CN(C)c1ccc(Nc2nc(N)c3ccccc3n2)cc1	-2.1	.	.	-8.2	.	-2.5	-6.4
44	O=[N+]([O-])c1ccc(P(=O)(Cc2ccccc2)c2ccccc2O)cc1 (stereo not drawn)	3.4	-2.2%	0.675	0.5	9.2	0.3	-14.6
45	O=C(NC(=S)Nc1ccc2oc(-c3ccncc3)nc2c1)c1ccccc1F	24.2	0.6%	0.674	-1.1	4.9	-2.0	16.1
46	Cc1ccc(/C=C/C(=O)CCC(=O)O)cc1	1.5	-1.0%	0.705	0.2	1.9	-1.5	1.2
47	COc1ccc(Cn2c(CCCO)nc3ccccc32)cc1OC	0.7	4.0%	0.73	-0.3	2.2	-1.8	1.5
48	Cc1ccc(C(=O)NNC(=O)Cc2nc3nc(C)cc(C)n3n2)cc1	5.0	.	0.688	2.0	2.2	2.3	0.6
49	COC(=O)C1=C(C)N(CC2CC2)C(=NCc2cc(OC)c(OC)c(OC)c2)N[C@H]1c1ccccc1	-0.7	.	.	0.0	-0.7	-2.4	2.4
50	C/C(=N\NC(=O)Cn1ccc(C(F)(F)F)n1)c1ccc(N2CCOCC2)cc1	-6.3	.	.	0.3	.	-8.0	-8.6

More entries
#	canonical_smiles	HNF4A DNA FP	Vif TR-FRET	E coli growth	A1 inh	UCH37 inh	LANA-H2A inh	B2AR ag
51	COc1ccc(-c2cc(N3CCCC3)n3ncnc3n2)cc1	-5.5	-7.6%	0.65	-0.1	1.6	-4.2	-34.4
52	COCCN(C(=O)c1cc(-c2ccc(F)cc2)nc2ccccc12)c1c(N)n(CC(C)C)c(=O)[nH]c1=O	-0.2	.	0.665	.	0.9	.	-5.1
53	COCCNC(=O)/C(C#N)=C\c1ccc(CNS(=O)(=O)c2ccccc2)o1	2.5	9.6%	0.69	-0.1	14.3	3.5	-0.9
54	CSCC[C@H](NC(=O)c1cccs1)c1nnc2ccccn12	-5.4	-6.5%	0.69	-1.4	3.4	5.6	5.3
55	CC(C)Sc1oc(-c2ccco2)nc1S(=O)(=O)c1ccc(F)cc1	5.7	?	0.727	-0.3	2.2	-2.9	-13.1
56	CCCCC(=O)NC1(C(F)(F)F)C(=O)Nc2c1c(=O)[nH]c(=O)n2Cc1ccco1 (stereo not drawn)	2.8	4.1%	0.742	-0.3	-0.1	4.4	5.1
57	COc1ccc(/C(C)=N\O)cc1OC	2.0	-8.9%	.	-0.4	.	4.4	-5.3
58	COc1ccc(C(CNC(=O)/C=C/c2c(Cl)nc3ccccn23)N(C)C)cc1 (stereo not drawn)	-1.6	1.6%	0.673	-0.3	-0.6	-2.4	-9.3
59	O=C(CC(C(=O)O)c1ccc(Cl)cc1)c1ccc(Br)cc1 (stereo not drawn)	-3.0	4.5%	0.684	-1.0	3.5	3.5	2.4
60	CC(=O)c1cccc(OCC(=O)N(Cc2ccco2)c2c(N)n(Cc3ccccc3)c(=O)[nH]c2=O)c1	-3.6	23.6%	0.698	0.0	0.6	1.7	-5.9
61	Cc1nc(N)sc1-c1csc(Nc2ccccn2)n1	2.0	18.4%	0.71	.	0.9	.	7.5
62	Nc1nnc(Cc2c[nH]c3ccccc23)s1	3.4	13.3%	0.652	0.0	0.5	-3.4	-28.5
63	COc1cccc(NC(=O)c2cccc(N3C(=O)C4CCC(C)CC4C3=O)c2)c1 (stereo not drawn)	-1.9	.	0.675	-0.3	2.0	3.5	1.9
64	COCC(C)NC(=O)Cn1c(SCc2ccccc2)nc2ccccc21 (stereo not drawn)	1.0	3.7%	0.703	0.3	-0.2	0.5	-1.6
65	CCN(CC)C1=N/C(=C\c2ccco2)C(=O)N1c1ccccc1	8.3	?	0.652	-0.4	-3.0	0.7	-1.4
66	Cc1cccc(NC(=O)CSCC(=O)Nc2cc(S(=O)(=O)N3CCOCC3)ccc2OC(C)C)c1	-1.1	.	0.686	0.2	-0.8	5.4	8.2
67	COC1=C/C(=C/c2c(N)n3c(nc2=O)sc2cc(S(C)(=O)=O)ccc23)C=CC1=O	95.7*	3.7%	.	-0.6	.	4.4	-201.3
68	c1ccc(-c2noc(-c3ccccc3-c3ccccc3)n2)cc1	0.2	-0.8%	0.734	0.5	2.1	1.5	6.3
69	Cc1nc2ccc(NC(=O)c3ccc(N4C(=O)CCC4=O)cc3)cc2s1	2.5	-0.5%	0.713	-0.3	-0.5	-1.3	-1.4
70	O=C(CCNC(=O)c1ccc(Br)cc1)NCCCc1ccccc1	-5.7	6.3%	0.711	1.3	0.4	-1.8	-4.6
71	Cc1csc(NC(=O)CSc2ccc(-c3ccccn3)nn2)n1	4.3	.	0.646	0.6	0.2	1.7	7.6
72	CN(C)C1CCN(C(=O)c2cccc(OC3CCN(S(=O)(=O)N(C)C)CC3)c2)C1 (stereo not drawn)	4.1	.	0.729	1.4	3.8	-79.8	-4.2
73	COc1ccc2c(c1)c(=O)c(C(=O)c1ccccc1)cn2Cc1ccc(C)cc1	-1.7	-6.7%	0.719	1.6	4.4	-1.9	-9.3
